# Screening results deposited in PubChem BioAssay by National Center for Advancing Translational Sciences (NCATS).
# D2 ag – human D2 receptor agonism in beta-arrestin assay | 360,000 compounds, 0.084% hits | DiscoveRx PathHunter D2 beta-arrestin, luminescence, 90 min; 100% = 57 uM dopamine signal | activation, % (test concentration not listed); in the data active = activation above about 40%; inconclusive = about 15% to 40%; inactive = below about 15%; also: compound concentration not given in the record; the text of the record calls up to 30% inactive
# Target sequence (P14416 whole entry, looked up): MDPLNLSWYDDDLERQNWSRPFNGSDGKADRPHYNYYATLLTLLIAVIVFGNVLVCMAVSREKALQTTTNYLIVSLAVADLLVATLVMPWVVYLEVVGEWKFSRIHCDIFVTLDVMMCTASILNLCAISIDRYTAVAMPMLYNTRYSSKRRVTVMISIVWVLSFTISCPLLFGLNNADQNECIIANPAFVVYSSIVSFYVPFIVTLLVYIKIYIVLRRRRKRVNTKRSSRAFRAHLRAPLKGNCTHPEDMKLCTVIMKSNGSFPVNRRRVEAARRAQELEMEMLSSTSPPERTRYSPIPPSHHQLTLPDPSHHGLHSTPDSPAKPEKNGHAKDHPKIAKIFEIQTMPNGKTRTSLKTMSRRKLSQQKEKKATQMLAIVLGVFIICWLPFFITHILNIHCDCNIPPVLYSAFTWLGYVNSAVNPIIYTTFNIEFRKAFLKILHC
#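 DiscoveRx PathHunter D2 beta-arrestin cells (2,100/well) attached overnight, then compound-stimulated 90 min at 37 C in HBSS/10 mM HEPES/0.1% Tween-20 buffer; beta-galactosidase complementation read by luminescence after 1 h at ambient temperature. Dopamine 57 uM final (EC100) as control.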
# TRPML1 inh – blocks the human TRPML1 channel; 390,000 compounds, 0.02% hits; Q9GZU1; TRPML1-inducible cells, Ca2+ dye fluorescence, FDSS; active compounds read low; inhibition of EC80 agonist-evoked calcium signal; activity change, negative = inhibition, % (concentration not given with the values); in the data active means activity change below about -50%; inconclusive means about -30% to -50%; inactive means above about -30%;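 also: stimulus is agonist 54-4 at its EC80 concentration; % is scaled to controls: 0 for no effect and ±100 for the full control effect; the text of the record puts the active cut at -80%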
# Target sequence (Q9GZU1 whole entry, looked up): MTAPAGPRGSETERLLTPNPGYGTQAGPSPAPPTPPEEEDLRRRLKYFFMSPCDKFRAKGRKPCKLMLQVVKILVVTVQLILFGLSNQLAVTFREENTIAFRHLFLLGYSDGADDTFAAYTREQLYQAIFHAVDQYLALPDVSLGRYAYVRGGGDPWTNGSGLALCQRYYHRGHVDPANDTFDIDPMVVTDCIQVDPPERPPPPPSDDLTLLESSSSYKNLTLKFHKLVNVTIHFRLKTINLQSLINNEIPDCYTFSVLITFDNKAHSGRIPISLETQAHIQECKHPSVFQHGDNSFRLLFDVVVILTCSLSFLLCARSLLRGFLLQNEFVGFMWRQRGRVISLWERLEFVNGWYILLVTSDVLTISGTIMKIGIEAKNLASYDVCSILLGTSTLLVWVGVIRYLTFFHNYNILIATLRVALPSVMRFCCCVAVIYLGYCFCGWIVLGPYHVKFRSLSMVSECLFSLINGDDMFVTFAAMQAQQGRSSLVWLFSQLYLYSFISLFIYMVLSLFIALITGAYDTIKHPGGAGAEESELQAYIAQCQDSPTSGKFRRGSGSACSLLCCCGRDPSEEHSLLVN
#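 Tet-induced TRPML1-DL cells loaded with Ca8 no-wash calcium dye were read kinetically on FDSS. Compound addition was followed by EC80 agonist 54-4 (4 uM final); inhibition was read over 110 s.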
# TRPML1 ag – activates the human TRPML1 channel; activation, % (concentration not given with the values); 410,000 compounds, 0.12% hits; Q9GZU1; TRPML1-expressing cells, Ca2+ dye fluorescence, FDSS; host cell line not named in the record; reference of the full effect not given here; in the data active = activation above about 50%; inconclusive = about 30% to 50%; inactive = below about 30%; also: 0% is about no effect; the text of the record puts the active cut at 80%
#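 Tet-induced TRPML1-DL cells, 1,500 per well, cultured overnight, were loaded with a no-wash Ca2+ dye for 45–90 min. Calcium fluorescence was recorded on the FDSS for 110 s after compound addition, before the EC80 agonist (4 uM 54-4) was added.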
# PINK1 expr mod – changes PINK1 expression. PINK1 immunofluorescence, high-content cytometry, 24 h. AID 624263. 410,000 compounds, 0.2% hits. Potency, µM (top dose mostly 76.6 µM), for inactives: at the top dose activation (PINK1 increase), actives largely listed as activators; active = well fitted activation curve with a large enough effect; inconclusive = small, poorly fitted or top-dose-only effect; inactive = flat fitted curve, though single readings scatter; cell line not stated here;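 also: potency is read from the fitted curve at half-maximal effect; % of control where 0% means no effect; nearly all actives have a fitted effect of over 65% in size; a mitochondrial uncoupler was the plate control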
#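 Stable cell line, 250 cells/well, 12 h attachment; compounds pinned at 5 concentrations, 24 h; CCCP control. Fixed with nuclear dye, primary antibodies 12 h at 10 degrees C, secondary plus cell stain; laser-scanning cytometer read.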
# Six1-Eya2 inh – Six1/Eya2 interaction inhibition; Q15475+O00167; AlphaScreen GST-Six1/His-Eya2 binding, biochemical; active compounds read low; control for the full effect not named in the record; activity change, % (concentration not given with the values); 360,000 compounds, 0.56% hits; AID 651725; in the data active = activity change below about -65%; inconclusive = about -30% to -65%; inactive = above about -30%; also: % is scaled to controls: 0 for no effect and ±100 for the full control effect
#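 Homogeneous AlphaScreen proximity assay pairing GST-Six1 with His-tagged Eya2 (added as 5X mix: 250 nM and 500 nM) in 50 mM Tris pH 8.0, 300 mM NaCl, 1 mM TCEP. Glutathione donor and nickel acceptor beads; 1 h, 37 °C, dark.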
# CtBP-E1A blk – inhibitors of CtBP/E1A interaction; AlphaScreen GST-E1A/His-CtBP binding, 1536-well; active compounds read low; control for the full effect not named in the record; activity change, % (no concentration beside the values); 340,000 compounds, 0.49% hits; in the data active means activity change below about -65%; inconclusive means about -30% to -65%; inactive means above about -30%; also: % is scaled to controls: 0 for no effect and ±100 for the full control effect
#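 Homogeneous bead-based format: GST-tagged E1A captured on glutathione donor beads, His-tagged CtBP on nickel acceptor beads; compounds precede bead addition by 2 h at 37 °C.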
# An asterisk follows results filed as active; ? = inconclusive; · = no result given; & = joins results of further samples; [ ] = another dose, or the depositor's remark. Outcome played no part in choosing rows. Share with any hit: about 1%.
# Values run as follows: D2 ag, TRPML1 inh, TRPML1 ag, PINK1 expr mod, Six1-Eya2 inh, CtBP-E1A blk
CCOC(=O)C1(CCc2ccccc2)CCN(C(=O)CCc2cnccn2)CC1
    0.4, -6, 0.5, 0.6%, 0, 8
CC(C)(C)CNC(=O)C1(C)CCN1C(=O)Cc1ccc(-c2ccccc2)cc1 (configuration not stated)
    9.2, ·, -0.8, 1.3%, -2, 4
Cc1onc(-c2c(F)cccc2Cl)c1C(=O)Nc1c(C)n(C)n(-c2ccccc2)c1=O
    -1.2, 1, 0.0, 2.3%[38.3 µM], 7, 9
CCOc1nc2cnccc2n(CC(=O)Nc2c(F)c(F)cc(F)c2F)c1=O
    1.1, -2, 0.5, 0.2%, 1, ·
CCN1CCCC1CNC(=O)C1CCCN(S(=O)(=O)c2cccc3nsnc23)C1 (configuration not stated)
    -2.2, -12, -0.4, 2.5%, -4, 1
Cc1ccc(NC(c2ccccc2)c2nc3ccccc3[nH]c2=O)cc1 (configuration not stated)
    -1.5, 28, 0.3, 17%, 1, 6
COc1ccc(N(Cc2cccs2)C(=O)COc2ccc(C(C)C)cc2)cc1
    ·, -17, 1.3, 10%, ·, ·
Cc1noc(C)c1NC(=O)N(C)C[C@H]1OCCCC[C@@H](C)Oc2ccc(NC(=O)Nc3ccc(F)cc3)cc2C(=O)N([C@@H](C)CO)C[C@H]1C
    1.4, 10, 0.4, 2.7%, 14, 3
CCC1CCCCN1CCCNC(=O)Cn1c(=O)c2cccn2c2ccccc21 (configuration not stated)
    -4.4, -5, -0.6, -0.5%, 6, 6
CCOC(=O)N1CCN(C2=CC(=O)OC23CCCCC3)CC1
    -2.6, -22, -0.4, -1.7%[38.3 µM], 2, 8
CCOC(=O)c1c(NC(=O)C[n+]2ccc(N(C)C)cc2)sc(C)c1C
    -2.0, 5, -0.5, -1.7%, 5, 10
O=C(COc1ccccc1[N+](=O)[O-])OCC(=O)N1CCC(Cc2ccccc2)CC1
    -1.5, 10, 0.9, -3.1%, -9, 0
COC(=O)C1=C(C)NC(C)=C(C(=O)OC)C1C(=O)OCCN1C(=O)c2ccccc2C1=O
    -3.1&1.1, -3&-8, -0.3&-0.6, 1.0%&-1.8%, -5&4, -2&3
Cc1c(NC(=O)CC(C)C)c(=O)n(-c2ccccc2)n1C
    -2.8, 5, -0.5, 0.2%, 1, -3
COc1ccc(NC(=O)CSCC(=O)N2CCN(c3cccc(C(F)(F)F)c3)CC2)cc1
    2.8, -13, 1.6, 2.3%, -7, -2
CN(C)S(=O)(=O)N(CC(=O)NCCSCc1ccc(Cl)cc1)c1ccccc1
    2.6, -21, -0.6, -0.4%, 1, 0
CCOc1ccc(-n2c(Cc3ccccc3)nnc2SCc2c(C)noc2C)cc1
    2.5, -26, 0.7, 1.7%, 2, -1
CN1CCN(c2ccccc2NC(=O)c2c(F)cccc2F)CC1
    0.7, 3, -0.7, 0.4%, 1, 12
COC(=O)c1cc(N2CCNCC2)nc2ccccc12
    -3.4, ·, ·, 3.3%, 9, 10
CSc1cccc(NC(=O)/C=C/c2ccccc2)c1
    -1.7, 22, 1.0, -2.9%[38.3 µM], 0, 0
O=C(O)COc1ccccc1-c1ccccc1
    -1.3, 9, 0.7, 0.2%, 13, 11
C#CCOCCOCCOCCNc1nc(N2CCN(C(=O)[C@H](CCCCN)n3cc([C@@H](N)C(C)CC)nn3)CC2)nc(N2CCN(C(=O)[C@H](Cc3cc4ccccc4[nH]3)n3cc([C@@H](N)C(C)CC)nn3)CC2)n1 (some centres not stated)
    -2.5, -18, 1.4, 0.8%, -4, -7
Cc1ccc(S(=O)(=O)N2CCC(=O)N(CCOC(=O)Nc3ccc(C)c(C)c3)CC2)cc1
    -2.6, -7, 1.0, -0.9%, 0, -2
Cc1c(Cl)cccc1NC(=O)CCCn1nc([N+](=O)[O-])cc1C
    -4.7, 1, -0.5, 1.0%, 5, -3
Cc1ccc(NC(=O)CCS(=O)(=O)c2cc3c4c(c2)CCN4C(=O)CC3)c(C)c1
    ·, -9, -0.9, 0.5%, ·, ·
CC(C)c1ccc(S(=O)(=O)N2CCN(C(=O)CN3C(=O)c4ccccc4C3=O)CC2)cc1
    0.7, 0, -0.2, 0.1%, 9, 2
COc1cccc(CNC(=O)c2cc3c(=O)oc4ccc(C)cc4c3s2)c1
    ·, -6, -0.6, 2.7%, ·, ·
Cc1cccc(OCC(=O)N2CCN(C(=O)c3ccco3)CC2)c1
    -3.4, -10, 2.5, -0.9%, 3, 2
COc1ccc(C(=O)NC2CCN(CC(=O)N3CCCCC3)CC2)cc1
    -3.4, 12, -0.1, -1.6%, 6, 2
Cc1cc(C)cc(N(CC(=O)N2CCOCC2)S(=O)(=O)c2ccccc2)c1
    -0.3, -9, -0.7, 0.2%, 5, 2
CCc1ccc(N2CC(C(=O)OCC(=O)NC3CC3)CC2=O)cc1 (configuration not stated)
    3.3, 8, -0.5, 4.1%, 0, 6
CC(C)OC(=O)CSc1nc(Cc2cccs2)nc2ccccc12
    -1.8, -14, 2.5, -0.5%, -21, ·
COc1ccc(OCC(=O)N/N=C(\C)CC(=O)Nc2cccc([N+](=O)[O-])c2)cc1
    0.9, -20, 0.5, 5.4%, -4, ·
COc1ccc(-c2cc(C(=O)NCc3ccc(F)cc3)no2)cc1
    ·, 8, -0.5, 0.9%, ·, ·
COc1ccc(NC(=O)CN(C)S(=O)(=O)c2ccc3c(c2)CC(C)N3C(C)=O)cc1OC (configuration not stated)
    -1.6, 1, -0.6, 1.7%, -2, -3
NS(=O)(=O)c1ccc(NC(=O)COC(=O)c2cnccn2)cc1
    0.0, 8, -0.2, -0.4%, -1, 4
O=C(Nc1cccc(C(F)(F)F)c1)C1CCCN1S(=O)(=O)c1cccc2cccnc12 (configuration not stated)
    0.7, -7, 1.7, -4.1%[38.3 µM], -1, -5
CCCCOc1ccc(C(=O)N/C(=C\c2ccc([N+](=O)[O-])cc2)C(=O)OCc2ccco2)cc1
    -2.4, -8, 1.0, 1.7%, -24, -8
CC(=O)c1ccc2cccc3c2c1N=CN3C
    4.3, -2, 5.9, ·, -2, 5
Cc1ccc(S(=O)(=O)Oc2ccc(/C=N/NC(=O)c3ccncc3)cc2)cc1
    1.8, -14, -0.4, 0.0%, -7, 3

# Compounds from the list above with a nitro group on carbon, in the order listed:
# Values run as follows: D2 ag, TRPML1 inh, TRPML1 ag, PINK1 expr mod, Six1-Eya2 inh, CtBP-E1A blk
O=C(COc1ccccc1[N+](=O)[O-])OCC(=O)N1CCC(Cc2ccccc2)CC1
    -1.5, 10, 0.9, -3.1%, -9, 0
Cc1c(Cl)cccc1NC(=O)CCCn1nc([N+](=O)[O-])cc1C
    -4.7, 1, -0.5, 1.0%, 5, -3
COc1ccc(OCC(=O)N/N=C(\C)CC(=O)Nc2cccc([N+](=O)[O-])c2)cc1
    0.9, -20, 0.5, 5.4%, -4, ·
CCCCOc1ccc(C(=O)N/C(=C\c2ccc([N+](=O)[O-])cc2)C(=O)OCc2ccco2)cc1
    -2.4, -8, 1.0, 1.7%, -24, -8

# A second format for part of the listing above:
SMILES | D2 ag | TRPML1 inh | TRPML1 ag | PINK1 expr mod | Six1-Eya2 inh | CtBP-E1A blk
Cc1ccc(S(=O)(=O)N2CCC(=O)N(CCOC(=O)Nc3ccc(C)c(C)c3)CC2)cc1 | -2.6 | -7 | 1.0 | -0.9% | 0 | -2
Cc1c(Cl)cccc1NC(=O)CCCn1nc([N+](=O)[O-])cc1C | -4.7 | 1 | -0.5 | 1.0% | 5 | -3

# Next section
# Values run as follows: D2 ag, TRPML1 inh, TRPML1 ag, PINK1 expr mod, Six1-Eya2 inh, CtBP-E1A blk
CCN(CC)CCCNc1oc(-c2ccc(OC)c(OC)c2)nc1C#N
    -1.7, 23, -0.8, -0.7%, -2, -3
Cc1[nH]c(C)c(S(=O)(=O)Nc2ccccc2Cl)c1C(=O)N1CCCC1
    4.3, -13, 0.1, -2.0%, 6, 1
CCOc1ccccc1N1CC(C(=O)Nc2cc(Cl)ccc2-n2cncn2)CC1=O (configuration not stated)
    -3.1, 3, -0.4, -0.9%, 1, 9
Cc1c(C)c2ccc(OCC(=O)NCc3ccccn3)cc2oc1=O
    3.7, 2, 0.1, -0.2%, -16, 1
CCOC(=O)c1c(C)[nH]c(C(=O)OCC(=O)N2c3ccccc3CC2C)c1C (configuration not stated)
    0.9, 1, -0.5, 0.9%, -4, -6
CCOc1ccccc1NC(=S)N(CCCN1CCOCC1)Cc1cn(C)c2ccccc12
    -4.8, 8, 0.0, -2.8%, -24, -16
COc1ccccc1N/N=C/c1c(CO)cnc(C)c1O
    -1.2, 13, -0.3, ·, -13, -9
c1ccc2c(c1)nc(N1CCCCCC1)c1ccccc12
    -7.1, -13, -0.6, ?, 26, 10
O=S(=O)(c1ccc(Br)cc1)c1nc(-c2cccs2)oc1SCc1ccccc1F
    ·, -2, 0.1, 1.2%, ·, ·
CC(=O)c1c(C)cc(C)c(CSc2nc(C)cc(=O)[nH]2)c1C
    8.9, 35, 2.1, 15%[38.3 µM], -1, -2
Cc1cc(CN(C)C(=O)CC2C(=O)NCCN2Cc2ccc(-c3ccccc3)cc2)on1 (configuration not stated)
    4.8, 31, -0.7, 1.6%, -7, -14
CC(=O)NCCc1nc2cc(NC(=O)c3ccccc3)ccc2n1C
    -7.5, 16, -0.7, 0.2%, 4, 0
COc1ccccc1C1/C(=C(/O)c2cnn(-c3ccccc3)c2C)C(=O)C(=O)N1CCN(C)C (configuration not stated)
    0.3, -9, 0.1, -1.0%, 25, ·
Nc1ccccc1Oc1ncc(C(F)(F)F)cc1Cl
    0.2, 0, -0.2, -0.1%[38.3 µM], -3, 30
COc1ccc(S(=O)(=O)N2CCN(C(=O)CCCN3C(=O)NC4(CCCC4)C3=O)CC2)cc1
    0.3, -16, 0.2, 0.6%, 10, 11
CCOC(=O)C1C(c2ccc(Cl)cc2)NC(=S)NC1(O)C(F)(F)F (configuration not stated)
    2.3, 10, 0.4, -1.5%, -3, -17
OCCC1CN(Cc2cccn2-c2nccs2)CCN1C1CCCCC1 (configuration not stated)
    -1.3, -17, 0.4, 1.6%, -1, 3
Cc1cccc(OCCNc2cc(N3CCN(CCO)CC3)ccc2[N+](=O)[O-])c1
    -3.5, -8, 3.1, 6.1%, ?, 21
O=C(CN1CCCN(Cc2ccc(F)cc2Cl)C1=O)NC1CCCCCCC1
    -1.0, 6, 0.7, 2.7%[38.3 µM], 3, 10
Cc1ccc(NC(=O)NCc2cccnc2)cc1Cl
    -0.6, -13, 0.0, 1.9%, 1, -21
CCOC(=O)c1nnc2c(-c3ccc(Cl)cc3)c(C)nn2c1C
    ·, 2, 0.9, -0.7%, ·, ·
CC(=O)N1c2ccc(S(=O)(=O)NCC3CCC(C(=O)N(C)Cc4ccccc4)CC3)cc2CC1C (configuration not stated)
    -0.5, -13, -0.9, 0.8%, 3, 0
